Screening data: PubChem, several laboratories
VCAM-1 up: enhancers of VCAM-1 display on endothelial cells, cell-based, plate reader, pooled HUVEC, TNFa stimulus (AID 455); HUVEC TNFa-induced VCAM-1 immunofluorescence, plate reader; numbers were filed only for top-ranked candidate wells; augmentation, % at 5 µM; 10,000 tested, 0.2% active;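 active = a compound raising TNF-alpha-driven VCAM-1 surface staining, with its hit status upheld on visual or statistical review; inactive = the rest, including hits rejected on review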;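 also: 0% = TNFa with vehicle and 100% = strongest image-checked hit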
26S disassembly: blocks ATP-dependent breakdown of the yeast 26S proteasome | anti-FLAG beads, GFP-proteasome disassembly, flow cytometry | inhibition of disassembly, % (concentration not given with the values) | 24,000 tested, 0.2% active | AID 751;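 active = above 40%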;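 also: plate controls were ATP control with full disassembly for no effect and ATP-gamma-S intact proteasomes for full effect; higher percent means more bead fluorescence retained so stronger block of disassembly; stock transfer was 100 nL into about 10 µL; wells with too few beads may also be inconclusive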
Active calls of the source: *; i = inactive; / = not tested or not shown. This is a subset; count on the stated rates, not on these rows.

Sample of the layout (two entries):
Second line of a record: 26S disassembly, VCAM-1 up
CCOC(=O)c1[nH]c2cc(OC)c(OC)cc2c1NC(=O)C(C)N1CCN(Cc2ccccc2)CC1 (stereo unspecified)
  1.6, i
COc1ccccc1C(=O)Nc1nc2ccc(S(C)(=O)=O)cc2s1
  -1.9, i

The list itself (from the top)
Second line of a record: 26S disassembly, VCAM-1 up
CCOC(=O)c1[nH]c2cc(OC)c(OC)cc2c1NC(=O)C(C)N1CCN(Cc2ccccc2)CC1 (stereo unspecified)
  1.6, i
COc1ccccc1C(=O)Nc1nc2ccc(S(C)(=O)=O)cc2s1
  -1.9, i
COc1ccc(-n2c(=O)[nH]cc(C(=O)N3CCc4ccccc43)c2=O)cc1
  -3.3, /
CC1(C(=O)NC2CCCCC2)CCC(=O)N1Cc1cccs1 (stereo unspecified)
  -0.4, i
CCOC(=O)C1CCN(C(=O)CS(=O)Cc2nc(-c3ccc(C)cc3)oc2C)CC1 (stereo unspecified)
  -0.1, /
O=C(CSc1ccc(-c2ccccc2)nn1)N1CCOCC1
  1.9, i
O=C(c1ccc(-c2ccccc2)cc1)N1CCN(c2nc3ccccc3o2)CC1
  -0.1, /
CCCN1C(=O)CC(c2ccco2)Sc2ccccc21 (stereo unspecified)
  4.8, /
CC(=O)NC(CCS(C)(=O)=O)C(=O)Nc1ccccc1Cl (stereo unspecified)
  -0.1, /
O=C(CN1CCN(Cc2ccccc2Cl)C1=O)NCC1CCCO1 (stereo unspecified)
  -2.2, /
CCOC(=O)C1=C(C)N(CCO)C(=O)NC1c1cccc(O)c1 (stereo unspecified)
  -0.1, /
COc1ccccc1N1CCN(C(=O)CCCCn2c(=O)[nH]c3ccsc3c2=O)CC1
  -0.5, /
COc1ccc(N(CC(=O)Nc2ccc(C)cn2)S(=O)(=O)c2c(C)nn(C)c2C)cc1
  1.4, /
CCOC(=O)c1[nH]c(C)c(C(=O)Nc2ccc(F)cc2)c1C
  -0.3, /
COc1cc(OC)cc(-c2nnc(SCC(=O)N3CCCCC3)o2)c1
  0.0, /
O=c1[nH]c2cccnc2n1Cc1ccco1
  -1.0, i
COC(=O)NCC(c1cccnc1)N1CCOCC1 (stereo unspecified)
  1.6, i
C=CCN1C(=O)CSc2ccc(C(=O)NCc3ccco3)cc21
  -3.3, /
Cc1oc2c(CN3CCCC3)c(O)ccc2c(=O)c1-c1ccccc1
  -1.6, i
CCOC(=O)N1CCN(C(=O)c2ccc3c(=O)n(CCOC)c(=O)[nH]c3c2)CC1
  0.1, /
COc1cc(NC(=O)CN(c2ccc(C)cc2)S(=O)(=O)c2c(C)n[nH]c2C)cc(OC)c1
  0.4, /
CC1Cc2ccccc2N1S(=O)(=O)c1cccc(C(=O)OCC(=O)NC2CCS(=O)(=O)C2)c1 (stereo unspecified)
  -2.2, i
c1cnc2c(SCc3ccc(-c4nnco4)cc3)cccc2c1
  -0.8, i
O=C(c1scc2c1CCCC2)N1CCOCC1
  -1.4, /
O=C(Nc1nccs1)C1(S(=O)(=O)c2ccc(Cl)cc2)CC1
  1.2, /
O=C(NC1CCCCC1NC(=O)c1ccco1)c1ccco1 (stereo unspecified)
  -3.2, i
CC(=O)c1ccccc1OCCn1nnc(-c2ccc(C)cc2)n1
  -0.4, i
CCCCOc1ccccc1C(=O)NCCCC(=O)O
  0.5, i
CCOC(=O)c1c(C)c(C(=O)NCc2ccc3c(c2)OCO3)c(C)n1CC
  0.1, /
COc1ccc(NC(=O)Nc2ccc3c(c2)N(C)C(=O)CS3)cc1OC
  0.3, /

Additional entries
Second line of a record: 26S disassembly, VCAM-1 up
O=C(NCC(c1cccnc1)N1CCN(c2ccc(F)cc2)CC1)c1ccccc1 (stereo unspecified)
  3.1, /
O=C(CCNS(=O)(=O)c1ccc(Cl)cc1)NCc1ccccn1
  1.4, i
Cc1ccc(NC(=O)CSc2nnc(-c3ccccn3)n2C)cc1
  -3.0, i
Cc1cccc(-n2nnc(C(=O)Nc3ccc(F)cc3)c2N)c1
  0.5, /
CC1CCCCC1NS(=O)(=O)c1ccc(S(=O)(=O)N2CCN(CCC#N)CC2)cc1 (stereo unspecified)
  -1.1, /
C/C(N)=C(\C#N)C(=O)NCCc1ccccn1
  1.5, i
Oc1[nH]c2ccccc2c1C=Nc1ccc2c(c1)OCCO2
  -0.2, /
COc1ccccc1N1CCN(C(=O)c2cc(-c3ccc(Cl)c(Cl)c3)on2)CC1
  -0.4, i
CCOC(=O)CNC(=O)CSc1ncnc2c1cnn2-c1ccccc1
  2.6, i
CC(=O)Nc1cc(NC(C)=O)cc(C(=O)OCC(=O)N2CC(C)OC(C)C2)c1 (stereo unspecified)
  -0.9, i
COc1ccc(CC(=O)OCn2nnc3ccccc3c2=O)cc1
  -2.0, i
CCOC(=O)c1[nH]c(C)c(C(=O)NCc2cccnc2)c1C
  -0.3, /
Cc1noc(C)c1S(=O)(=O)NCCN1CCN(c2ccccc2)CC1
  3.1, i
CCOC(=O)CC(Nc1nc(N2CCOCC2)nc(N2CCOCC2)n1)c1ccccc1Cl (stereo unspecified)
  -0.4, /
COc1ccc(C(NC(=O)c2ccco2)c2ccc(OC)c(OC)c2)cc1 (stereo unspecified)
  -1.3, i
CC(C)(C)Nc1nc(NC(C)(C)C)nc(-n2ccnc2)n1
  0.0, i
Cc1cccc(NC(=O)CSc2nnc(-c3cc(C)n(-c4ccccc4)c3C)o2)c1C
  -0.3, i
COc1ccccc1OCC(O)CN1C(=O)NC(C)(C)C1=O (stereo unspecified)
  0.6, /
Cn1c(=O)oc2cc(S(=O)(=O)N3CCCC(C(=O)NCc4cccs4)C3)ccc21 (stereo unspecified)
  0.3, /
CCS(=O)(=O)N1CCC(C(=O)NC2CCCCCCC2)CC1
  1.6, i
CC(=O)NC(CCS(C)(=O)=O)C(=O)Nc1nccs1 (stereo unspecified)
  -0.6, /
CCCCn1nnc(NC(=O)c2cc3ccccc3o2)n1
  -1.5, i
COC(=O)CSC1=NS(=O)(=O)c2ccccc21
  -0.9, i
Cc1ccc2c(c1)N(CCCC(=O)NCCC1=CCCCC1)C(=O)CO2
  0.0, /
COCC(=O)Nc1ccc(-c2cn3cccnc3n2)cc1
  -0.1, /
CCC(=O)N1CCc2cc(S(=O)(=O)NCCN3CCC(C)CC3)ccc21
  -0.9, /
CCS(=O)(=O)NC(C)C(c1cccs1)N1CCN(C)CC1 (stereo unspecified)
  -2.0, /
Cc1[nH]n(C(N)=S)c(=O)c1C(c1ccccc1)C(C#N)C#N (stereo unspecified)
  -0.5, i
O=S(=O)(c1cnc[nH]1)N1CCCCCC1
  1.9, /
COc1ccc(NC(=O)c2oc3ccccc3c2NC(=O)C(C)(C)C)cc1
  1.2, /

A draw from above in order of count of non-hydrogen atoms, smallest number first:
Second line of a record: 26S disassembly, VCAM-1 up
CCS(=O)(=O)NC(C)C(c1cccs1)N1CCN(C)CC1 (stereo unspecified)
  -2.0, /
Cc1ccc2c(c1)N(CCCC(=O)NCCC1=CCCCC1)C(=O)CO2
  0.0, /
COc1ccc(C(NC(=O)c2ccco2)c2ccc(OC)c(OC)c2)cc1 (stereo unspecified)
  -1.3, i
CC(=O)Nc1cc(NC(C)=O)cc(C(=O)OCC(=O)N2CC(C)OC(C)C2)c1 (stereo unspecified)
  -0.9, i

(more compounds)
Second line of a record: 26S disassembly, VCAM-1 up
CCCCCc1nc2c(=O)[nH]c3ccccc3c2o1
  -3.2, /
O=C(NCc1cccs1)C1CCCN(c2ncccn2)C1 (stereo unspecified)
  -1.5, i
CC(C(=O)Nc1ccc(C(=O)O)cc1)N1C(=O)c2ccccc2C1=O (stereo unspecified)
  0.6, /
COc1cccc(C(=O)Nc2c3c(nn2-c2cccc(C)c2C)CS(=O)(=O)C3)c1OC
  -0.6, /
CCCS(=O)(=O)N1CCC(C(=O)NCCN2CCCC2)CC1
  1.6, i
CC1=C(C(N)=O)C(c2ccncc2)n2nc(-c3ccccc3Cl)nc2N1 (stereo unspecified)
  1.9, i
Nc1ccc(S(=O)(=O)NC(=O)c2ccccc2)cc1
  0.6, i
COc1ccc(Cn2nnnc2C(c2ccncc2)N2CCOCC2)cc1 (stereo unspecified)
  1.2, i
COc1ccc(NC(=O)C2CCN(S(=O)(=O)c3cccc4cccnc34)CC2)cc1
  0.0, /
COC(=O)[C@H](CCSC)NC(=O)Nc1cc(C)ccc1C
  0.5, i
CCCn1c(=O)c(C(=O)NCc2ccccn2)c(O)c2ccccc21
  -8.2, i
CCOCCCNC(=O)CN1CCN(Cc2ccccc2C)C1=O
  -2.5, i
CC(C)(C)c1ccccc1OCC(=O)Nc1ncn[nH]1
  0.7, /
Cc1cc(NS(=O)(=O)c2ccc(NC(=O)CN3C(=O)c4ccccc4C3=O)cc2)nc(C)n1
  -0.3, /
CCOC(=O)c1ccc2[nH]c(C)c(CN3CCN(C)CC3)c(=O)c2c1
  -0.1, i
COCC(C)NC(=O)c1cc(-c2ccc(OC)c(OC)c2)on1 (stereo unspecified)
  2.6, /
O=C(NCCCN1CCCC1)C1CCN(C(=O)c2cc3sccc3n2Cc2ccc(F)cc2)CC1
  0.1, /
Cc1oc(-c2ccc(Cl)cc2)nc1CN1CCC(C(=O)NCCCN2CCCC2=O)CC1
  2.2, /
CC(C)C1CC(O)(C2(O)CCCCC2)ON1 (stereo unspecified)
  2.4, /
CCN1CCCC1CNC(=O)c1cc(NC(C)=O)c(N(C)C)cc1OC (stereo unspecified)
  0.7, /
CC(C)C(NC(=O)C1CCCCC1)C(=O)NCc1ccccn1 (stereo unspecified)
  1.8, /
Cc1ccc(C(=O)c2cc3c(cc2N)OCCO3)cc1
  -0.3, /
Cc1nn(-c2ccccc2)c(C)c1C(=O)OCC(=O)c1c(N)n(CC(C)C)c(=O)n(C)c1=O
  -1.5, i
Cc1ccc(-n2ncc3c(=O)n(CC(=O)Nc4cccc(Cl)c4)cnc32)cc1C
  -1.9, /
COc1cc2c(cc1OC)CN(C(=O)CSc1nc3[nH]ncc3c(=O)n1-c1ccccc1)CC2
  -0.6, i
NC(=O)C1CCN(C(=O)c2cc3ccccn3n2)CC1
  -3.8, /
Cc1cc(C(=O)Nc2c(C)n(C)n(-c3ccccc3)c2=O)c(C)o1
  0.7, i
CCN(CC)S(=O)(=O)c1ccc(NC(=O)Cn2cnc3ccccc3c2=O)cc1
  0.2, i
CC(C)(C)n1nc2c(c1NC(=O)c1ccc(S(=O)(=O)N3CCCC3)cc1)CSC2
  1.3, /
Cn1c(=O)c2c3c(sc2n2c(SCc4ccccc4)nnc12)CCCC3
  -2.7, i

(further entries)
Second line of a record: 26S disassembly, VCAM-1 up
CC(C)N(C#N)c1nc(N2CCOCC2)nc(N2CCOCC2)n1
  -1.4, /
Cc1ccc(CSc2nc3c(c(=O)[nH]2)CCC3)cc1
  1.0, i
O=C(CCC1CC(=O)Nc2ccccc21)NCc1cccnc1 (stereo unspecified)
  -0.2, /
COC(=O)C1CCN(c2cc(=O)n(Cc3ccc(F)cc3)c(=O)[nH]2)CC1
  0.0, /
CCCc1[nH]nc2c1C(c1ccc(O)cc1OCC)C(C#N)=C(N)O2 (stereo unspecified)
  -1.4, /
c1ccc2c(c1)nc(N1CCOCC1)c1nnnn12
  1.1, /
CCCCn1c(C(C)NC(=O)c2cccs2)nc2ccccc21 (stereo unspecified)
  0.3, /
Cn1c(=O)cc(SCC(=O)N2CCOCC2)c2ccc(Cl)cc21
  0.5, i
CCCCN(CC)CCNC(=O)c1cc2c(=O)n(C)c3ccccc3c2n1C
  -0.5, /
COc1cccc(NC(=O)c2nnn(CCc3ccccc3)c2N)c1
  1.1, /
CCOC(=O)N1CCC(NC(=O)C2CCN(c3nc(-c4ccc(OC)cc4)no3)CC2)CC1
  0.1, /
CN(C)c1cc(NC(=O)CN2CCOCC2)c2ccccc2n1
  -0.1, i
CCC1Cc2c(nc3c4c(nc(N5CCOCC5)c(C#N)c24)NC(C)=N3)O1 (stereo unspecified)
  -0.7, i
COC(=O)[C@H](C(C)C)n1c(C)c(C(C)=O)c(C(C)=O)c1C
  -2.4, /
N#Cc1cnc(SCCc2ccccc2)nc1N
  88.2*, i
COc1nc(OC)nc(N2CCC(C(=O)NC3CCCCCC3)CC2)n1
  -1.5, i
CC(C)(C)C1CCc2onc(C(=O)N3CCOCC3)c2C1 (stereo unspecified)
  -0.3, /
Cc1cc(NC(=O)CSC2=Nc3ccccc3C3=NC(Cc4ccccc4)C(=O)N23)n[nH]1 (stereo unspecified)
  -1.4, /
COc1nc(-c2ccc(Cl)cc2)ccc1-c1noc(-c2ccncc2)n1
  2.6, i
COc1ccccc1Cn1c(=S)[nH]c2cc(C(=O)N3CCN(C)CC3)ccc2c1=O
  -0.4, /
Cc1nnc(NC(=O)c2ccc(S(=O)(=O)N(C)Cc3ccccc3)cc2)o1
  -0.1, /
CCOCC(=O)Nc1c(C(=O)Nc2ccccc2OC)oc2ccccc12
  2.9, /
O=C(NCc1ccc(F)cc1)C1CCN(C(=O)NCc2ccccc2)CC1
  -1.7, i
Nc1[nH]ncc1C(=O)Nc1cccc(C(F)(F)F)c1
  2.2, /
CC(=O)Nc1ccc(S(=O)(=O)NCc2cn3ccsc3n2)cc1
  1.2, /
COC(=O)CCSCC(=O)Nc1cc(C)on1
  1.0, /
Cn1c(=O)oc2cc(S(=O)(=O)N3CCCC(C(=O)N4CCc5ccccc5C4)C3)ccc21 (stereo unspecified)
  -0.3, /
